High-throughput results as filed in PubChem.
RE007 growth inh – less growth of the S. pombe RE007 Vpr strain | Potency, µM (titrated, usually from 92.2 µM), inactives show top-dose activity change, negative = less growth | hit rate 0.21% among 360,000 | S. pombe RE007 Vpr strain, BacTiter-Glo ATP luminescence, 24 h; control for the full effect not named in the record | AID 651644; active = well fitted falling curve with a large enough effect; inconclusive = small, poorly fitted or top-dose-only effect; inactive = no such curve, though single readings can be large or run the other way;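 note: % is set by controls: 0 for no effect and ±100 for the full control effect; nearly all actives have a fitted effect of over 50% in size; the assay follows cell death caused by Vpr and the record does not say whether a fall means rescue or toxicity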
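Fission yeast strain RE007, carrying one chromosomally integrated HIV-1 vpr copy, was seeded at OD 0.01 in PMG+AL medium with 23 nL pinned compound. After 24 h at 30 °C and 99% humidity, viability was read by BacTiter-Glo luminescence.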
Cruzain inh Det – inhibitors of Trypanosoma cruzi cruzain with detergent; Potency, µM, for the others: max response, negative = inhibition, actives largely listed as inhibitors; hit rate 0.43% among 200,000; P25779; purified cruzain, Z-FR-AMC fluorescence, 0.01% Triton; AID 1478; active = well fitted curve in the direction sought with a large enough effect; inconclusive = small, poorly fitted or top-dose-only effect, or another doubt; inactive = no such curve, though single readings can be large; an effect the other way counts as inactive or inconclusive;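 note: plate controls were neutral wells for no effect and buffer without enzyme for full effect; nearly all actives have a fitted effect of over 40% in size; top concentration of the series not given in the record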
Target sequence (P25779 123-467 limits assumed): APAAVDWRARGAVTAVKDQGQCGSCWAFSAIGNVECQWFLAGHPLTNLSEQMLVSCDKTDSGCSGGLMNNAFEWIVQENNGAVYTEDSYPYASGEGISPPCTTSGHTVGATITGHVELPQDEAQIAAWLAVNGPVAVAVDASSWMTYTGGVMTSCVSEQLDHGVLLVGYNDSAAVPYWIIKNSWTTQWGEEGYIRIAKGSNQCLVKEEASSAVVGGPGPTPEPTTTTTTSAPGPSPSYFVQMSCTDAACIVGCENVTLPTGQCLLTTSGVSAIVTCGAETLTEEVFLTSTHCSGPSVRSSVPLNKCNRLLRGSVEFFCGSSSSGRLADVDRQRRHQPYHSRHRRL
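Read-out: AMC fluorescence (360 nm excitation, 450 nm emission), four reads over 2 min, first-to-third difference used. Conditions: cruzain 1.5 nM, Z-FR-AMC 2 uM, pH 5.5 acetate, 5 mM DTT, 0.01% Triton X-100.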
MARV entry inh – Marburg virus entry inhibition. Marburg virus pseudotyped entry inhibition, cell reporter; control for the full effect not named in the record; about a third of the inactives were read at about 46 µM. hit rate 1.8% among 300,000. Potency, µM (top dose mostly 37.8 µM), inactives show at the top dose activity change, negative = inhibition, hits mostly inhibitors. AID 540276; active = well fitted inhibition curve with a large enough effect; inconclusive = small, poorly fitted or top-dose-only effect, or effect the other way; inactive = flat fitted curve, though single readings scatter; tested in HEK293 cells; about a fifth of its hits are not listed in these tables; note: % is set by controls: 0 for no effect and ±100 for the full control effect; luciferase read-out
Cruzain noTriton – blocks cruzain activity in detergent-free assay; hit rate 2.3% among 200,000; purified cruzain, Z-FR-AMC fluorescence, no detergent; P25779; Potency, µM, inactives show max response, negative = inhibition, actives largely listed as inhibitors; active = well fitted curve in the direction sought with a large enough effect; inconclusive = small, poorly fitted or top-dose-only effect, or another doubt; inactive = no such curve, though single readings can be large; an effect the other way counts as inactive or inconclusive;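 note: plate controls were enzyme without inhibitor for no effect and buffer without enzyme for full effect; nearly all actives have a fitted effect of over 40% in size; top concentration of the series not given in the record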
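Detergent-free condition (0.00005% Triton X-100) in acetate buffer pH 5.5 with DTT. 1.5 nM enzyme and compound were pre-mixed 15 min, then 2 uM Z-FR-AMC substrate added; reaction progress from fluorescence change between first and third reads (60 s).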
StopGo reporter – FMDV 2A StopGo reporter, luciferase signal; human cells with a luciferase reporter of 2A StopGo recoding; control for the full effect not named in the record; Potency, µM (doses to about 57.9 µM), without a hit: at the top dose signal change, negative = less light; hit rate 1.2% among 410,000; active = well fitted falling curve with a large enough effect; inconclusive = small, poorly fitted or top-dose-only effect; inactive = no such curve, though single readings can be large or run the other way; tested in HEK293T cells; note: % is set by controls: 0 for no effect and ±100 for the full control effect; nearly all actives have a fitted effect of over 45% in size; luciferase light after 4 h
SARS PLP yeast – blocks SARS-CoV papain-like protease in a yeast assay; S. cerevisiae expressing SARS-CoV PLpro, growth rescue; control for the full effect not named in the record; Potency, µM (doses to about 32.9 µM), without a hit: at the top dose activity, positive = growth rescue; hit rate 0.19% among 330,000; note: 0% is about no effect; nearly all actives have a fitted effect of over 55% in size; growth read by luminescence after 48 h
Lassa entry inh – Lassa virus entry inhibition. AID 540256. hit rate 1.2% among 300,000. Lassa virus pseudotype entry inhibition, cell reporter; control for the full effect not named in the record. Potency, µM (top dose mostly 37.9 µM), for the others: top-dose activity change, negative = inhibition, actives largely listed as inhibitors; active means well fitted inhibition curve with a large enough effect; inconclusive means small, poorly fitted or top-dose-only effect, or effect the other way; inactive means flat fitted curve, though single readings scatter; tested in HEK293 cells; note: % is set by controls: 0 for no effect and ±100 for the full control effect; nearly all actives have a fitted effect of over 50% in size; luciferase read-out
NS1 inh – blocks influenza NS1 protein function; S. cerevisiae slowed by influenza A NS1, growth recovery by OD600; Potency, µM (highest dose often 46.1 µM), without a hit: top-dose activity, positive = more growth; hit rate 0.4% among 270,000; note: actives are rising curves; nearly all actives have a fitted effect of over 50% in size
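Recovery from NS1-induced slow growth read by OD600 in budding yeast switched to galactose assay medium (pH 6.0, -URA) at 1:100 dilution. Compound 23 nl per well; the matching strain lacking NS1 serves as control.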
An asterisk follows results filed as active; u = inconclusive; x = no result given; & = joins results of further samples; [ ] = remark or other dose. Unless noted, calls come from the whole dose curve; as a rule, active means well fitted rising curve with a large enough effect; inconclusive means small, poorly fitted or top-dose-only effect; inactive means no such curve, though single readings can be large or run the other way. Potency is the fitted concentration of half-maximal effect.

Every second line gives: RE007 growth inh | Cruzain inh Det | MARV entry inh | Cruzain noTriton | StopGo reporter | SARS PLP yeast | Lassa entry inh | NS1 inh
> CCCCCCCCCCCCCCCCCCNc1ccn(C2OC(COP(=O)(O)OCC3OC(n4cc(F)c(=O)[nH]c4=O)CC3O)C(O)C2O)c(=O)n1 (stereo not drawn)
  17.6% | x | u | x | -4.9% | x | u | x
> COc1ccc(CC(=O)Nc2ccncc2Cl)cc1
  -1.5% | x | x | x | u | -0.6% | x | 0.8%
> c1ccc(CCN2CN=C(Nc3nc4ccccc4o3)NC2)cc1
  -1.5% | -0.1% | 11.7% | -7.4% | 49.3%[activator] | 5.5% | u | -4.8%
> COc1ccc(C)cc1NC(=O)c1nnn(Cc2cccc(Br)c2)c1N
  x | -0.7% | u | -2.6% | -6.2% | x | -11.5%[46.1 µM] | x
> CCOc1ccc(NC(=O)c2ccc(NC(=O)c3ccc(CN4CCOCC4)cc3)cc2)cc1
  -4.3% | x | x | x | 0.0% | -0.1% | x | 0.1%
> O=C(O)CCn1c(SCc2cccc3ccccc23)nc2ccccc21
  -29.7% | -2.7% | 13.8% | -18.2% | 12.1% | -13.6% | u | -13.2%
> CC(C)(C)OC(=O)N1CCC(CC2CC(c3cccc(Br)c3)=NO2)(C(=O)NCC2CCCCC2)CC1 (stereo not drawn)
  -9.2% | x | x | x | -27.9% | 0.7% | x | u
> Cc1ccc(CSc2ccc(S(=O)(=O)N3CCCCC3)cn2)cc1
  31.8% | x | 8.0% | x | -12.3% | -1.9% | -24.8%[46.1 µM] | x
> NS(=O)(=O)c1ccc(NC(=O)CSc2ccc3ccccc3n2)cc1
  8.5% | -3.6%&-22.1% | -15.0%&-15.0% | -0.4%&-0.1% | -28.5%&-28.6% | 7.1% | 3.2%[46.1 µM] | 3.6%
> CC(=O)c1cccc(NC(=O)/C(=C\c2ccco2)NC(=O)c2cccs2)c1
  4.3% | -5.1% | -5.9% | -11.9% | 13.9% | 3.6% | 1.1% | 4.4%
> COc1ccc(N=C2SC(CC(=O)Nc3ccccc3)C(=O)N2Cc2ccccn2)cc1 (stereo not drawn)
  -1.8% | x | u | x | 8.2% | -2.5% | u | x
> CCOC(=O)c1ccc(NC(=O)N2CCN(C(=O)c3ccco3)CC2)cc1
  0.8% | x | -0.8% | x | -14.9% | -0.1% | -3.2% | -1.3%
> CN(C(=O)CSc1nnc(-c2ccncc2)n1C)C1CCS(=O)(=O)C1 (stereo not drawn)
  5.0% | 5.4% | -8.9%[46.1 µM] | 2.2% | -9.4% | 5.7% | 4.0% | 12.2%
> COc1ccc(/C=N/NC(=O)c2cnccn2)cc1O
  -5.6% | -8.2% | u | -2.1% | 17.2% | -3.2% | 23.6% | 7.2%
> S=C(NCC1COc2ccccc2O1)Nc1ccccc1 (stereo not drawn)
  -5.4% | x | -3.2% | x | 64.5%[activator] | -0.7% | -8.2% | -5.2%
> COc1cc(/C=N/NC(=O)c2ccc(CSc3nc4ccccc4[nH]3)cc2)cc(OC)c1OC
  x | -10.6% | u | u | u | 13.5% | u | 12.6µM*
> CCc1ccc2oc(C(=O)N3CCN(c4ccccc4OC)CC3)cc(=O)c2c1
  10.5% | x | u | x | -16.1% | -4.6% | u | -35.4%
> CCCCCCc1c(O)nc(SCCN(C)C)[nH]c1=O
  -7.6% | x | u | x | -8.5% | -1.1% | -22.2%[46.1 µM] | -3.3%
> O=C(CSc1nnc(-c2ccccc2)c(-c2ccccc2)n1)NCC1CCCO1 (stereo not drawn)
  u | x | 19.1%[46.1 µM] | x | -21.9% | 2.4% | u | x
> Cc1ccc(S(=O)(=O)NN=C2C3CC4CC(C3)CC2C4)cc1
  12.8% | x | -3.7% | x | 40.8%[activator] | -23.5% | 12.3% | x
> COc1cc(/C=C\C(=O)NCc2ccc3[nH]c(C)cc3c2)cc(OC)c1OC
  -4.8% | -3.5% | 4.5% | 22.1% | 0.0% | 8.5% | -6.3% | 1.26µM*
> CCOc1cccc(C2NC(=S)NC(C)=C2C(=O)Nc2ccccc2)c1 (stereo not drawn)
  -3.5% | -3.7% | -11.2% | 3.3% | -23.0% | 9.5% | -28.7% | 16.4%
> CCN1CCN(C(=O)c2ccc3c(c2)N(Cc2ccccc2)C(=O)c2ccccc2S3=O)CC1 (stereo not drawn)
  0.9% | 2.8% | 15.9%[46.1 µM] | -2.2% | u | -6.0% | 6.7%[46.1 µM] | 2.2%
> CC(NCC(O)COCc1ccc(Cl)cc1)c1ccccc1 (stereo not drawn)
  12.8% | x | u | x | -13.7% | 0.6% | -24.0%[46.1 µM] | x
> CCOc1ccc(C(=S)NC2CCCCC2)cc1
  -15.3% | -4.1% | 1.0% | 6.3% | 77.3%[activator] | 3.5% | u | 0.8%
> CC(Oc1cccc(Cl)c1)C(=O)Nc1cc(=O)n(C)c(=O)n1C (stereo not drawn)
  -0.7% | -4.4% | -14.1% | 5.7% | -27.7% | -1.6% | 6.0% | -11.1%
> C/C(=N\N1CCN(C2c3ccccc3-c3ccccc32)CC1)c1ccncc1
  -5.1% | -7.9% | 8.2% | 11.7% | 12.6µM* | -6.1% | 14.7% | 26.3%
> Cn1cc(/C=C2\SC(=O)N(c3ccccc3)C2=O)c2ccccc21
  -5.8% | -4.2% | u | u | 35.6%[activator] | -0.1% | 23.8% | 12.4%
> Cc1cc(C)nc(NS(=O)(=O)c2ccc(NC(=O)c3cc(-c4ccccc4)nc4ccccc34)cc2)n1
  -10.7% | -5.4% | -4.1% | u | 21.1% | 13.9% | -3.6% | u
> C#Cc1cccc(-n2nnc(C(=O)OC)c2-c2ccccc2)c1
  -4.9% | x | -14.3% | x | u | 0.2% | -22.2% | -6.1%
> COc1ccc(C(=O)NCC(=O)N2CCc3ccccc3C2)cc1
  4.7% | x | -17.5%[14.2 µM] | x | 11.7% | 1.0% | 0.4% | -22.1%
> CC1(C)CC(NC(=O)COc2ccccc2Cl)CC(C)(C)N1
  24.6% | x | x | x | -6.8% | 0.6% | x | -1.1%
> Cc1ccccc1N(C(=O)c1snc(C(N)=O)c1N)C(C(=O)NCC1CCCO1)c1ccc(N(C)C)cc1 (stereo not drawn)
  17.2% | x | -25.3%[46.1 µM] | x | 7.4% | 0.5% | u | 2.7%
> CCOc1ccc(C(=O)Nc2cccc(-c3ccc(N4CCOCC4)nn3)c2)cc1OCC
  -3.7% | x | u | x | 28.8% | 0.4% | -7.7% | x
> O=C(Nc1ccccc1Cl)c1cc2c(-c3ccccc3)nn(-c3ccccc3)c2s1
  x | -1.1% | -3.5%[46.1 µM] | 2.2% | -10.5% | x | 13.2%[46.1 µM] | x
> COc1c2c(c(OC)c3c1c(=O)c1ccccc1n3C)OCO2
  -14.3% | x | -3.8% | x | -26.0% | x | -11.2% | x
> CCOc1ccc(S(=O)(=O)N2CCC(C(=O)NCc3ccco3)CC2)cc1
  2.5% | x | -1.0% | x | 0.0% | -1.3% | -11.0% | -0.1%
> COc1cccc(-c2nc(NCc3ccccc3)c3ccccc3n2)c1O
  2.9% | x | x | x | 10.3% | -1.0% | x | 3.7%
> CCOC(=O)c1c(NC(=O)CN2CCN(C(=O)c3ccco3)CC2)sc(C)c1C
  2.6% | x | u | x | -24.7% | 2.4% | 11.2µM* | 7.7%
> CCn1c(=O)cc(O)c2ccccc21
  -3.4% | 2.5% | u | -10.2% | -13.8% | 2.4% | -7.8% | 10.6%
> Cn1c(O)c(/C=N/NC(=O)c2ccncc2)c(=O)n(C)c1=S
  -1.3% | x | x | x | 0.6% | -1.6% | x | 4.6%
> COc1cc2[nH]c(=S)n(Cc3cccs3)c(=O)c2cc1OC
  1.6% | x | -7.5% | x | -8.9% | -1.7% | -1.5% | 2.6%
> Cc1nc(CC(=O)Nc2ccc(C)c(C)c2)cs1
  x | -3.7% | -0.6%[46.1 µM] | -11.3% | 20.4% | x | u | x
> CCOc1ccccc1C(=O)Nc1ccc(S(=O)(=O)N2CCOCC2)cc1
  2.4% | 2.6% | u | 20.3% | -16.5% | 12.3% | u | -32.5%
> CN1C(=O)/C(=C/c2cn(CC(=O)N3CCCCC3)c3ccccc23)NC1=S
  11.9% | x | x | x | -8.8% | 7.1% | x | 1.9%
> C/C=C(\C)C(=O)N[C@@H](c1ccccc1)[C@@H](O)C(=O)O[C@H]1C[C@@]2(O)[C@@H](OC(=O)c3ccccc3)C3[C@](C)(C(=O)[C@H](OC(C)=O)C(=C1C)C2(C)C)[C@@H](O)C[C@H]1OC[C@@]31OC(C)=O (stereo partly drawn)
  -2.4% | x | x | x | -16.5% | -0.1% | x | -36.6%
> COCCCNC(=S)N/N=C/c1ccc(N(C)C)cc1Cl
  0.4% | x | 15.3%[46.1 µM] | x | 22.8% | -0.5% | -18.4% | 1.5%
> CSc1nc(S(C)(=O)=O)nc2[nH]c(=O)[nH]c12
  -1.0% | x | 15.7% | x | -11.6% | x | u | x
> COc1ccc(S(=O)(=O)n2cnc3cc(C)c(C)cc32)cc1
  0.7% | 0.4% | -10.5% | -3.3% | -21.7% | -10.5% | -12.6% | -110.4%
> CCOc1ccc(NS(=O)(=O)c2ccc(C(=O)NCCCN3CCCC3=O)cc2)cc1
  -13.5% | x | u | x | -25.2% | -5.8% | -0.8% | -8.7%
> CC(C)CC(=O)NC(=S)Nc1ccc(N2CCCC2)c(Cl)c1
  -3.2% | x | u | x | 35.0%[activator] | 0.9% | -16.8% | 2.2%
> Cc1ccc(C)c(OCCC(=O)OCC(=O)NC(=O)NC2CCCCC2)c1
  -1.1% | x | 20.0%[46.1 µM] | x | -8.4% | 3.3% | 17.3%[46.1 µM] | x
> COc1ccccc1N1CCN(C(=O)c2ccc(Cl)c(S(=O)(=O)N3CCOCC3)c2)CC1
  -3.2% | x | u | x | 0.0% | -6.1% | -24.9% | 3.9%
> COc1ccc(CCNC(=O)Cn2cc(C(=O)c3ccc(Cl)cc3)c(=O)c3ccc(C)nc32)cc1OC
  x | 5.3% | x | 17.3% | -20.4% | x | -3.1%[46.1 µM] | x

The order is random; about 4.5% have a hit in one of these screens.
